Menin-MLL FL inh: qHTS Assay for Inhibitors Targeting the Menin-MLL Interaction in MLL Related Leukemias: Competition With Fluorescein Labeled MLL-derived Peptide. 290,000 tested, under 10 active. Fluorescence polarization, fluorescein-MLL peptide displacement from menin. FP activity change, % at 61.4 µM; inconclusive = falling polarisation curve, or a change in total fluorescence; inactive = total fluorescence flat and polarisation flat or rising; no compound was filed as active; the % refers to the polarisation; negative = inhibition;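 also: % of control where 0% means no effect; inhibitors lower the polarisation; unlabelled MLL peptide was the positive control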
ClpP mod: qHTS Assay for Activators of ClpP; purified B. subtilis ClpP, FRET peptide cleavage, 20 min; Potency, µM (top dose mostly 57.5 µM), for inactives: at the top dose activity change, negative = active; 340,000 tested, 1.9% active; AID 651965, 2013; active = well fitted falling curve with a large enough effect; inconclusive = small, poorly fitted or top-dose-only effect; inactive = no such curve, though single readings can be large or run the other way; also: potency is read from the fitted curve at half-maximal effect; the source files actives as falling curves though it sought activators and does not explain the sign; nearly all actives have a fitted effect of over 65% in size; many hits overshoot -100%
Target sequence (P80244 whole entry, looked up): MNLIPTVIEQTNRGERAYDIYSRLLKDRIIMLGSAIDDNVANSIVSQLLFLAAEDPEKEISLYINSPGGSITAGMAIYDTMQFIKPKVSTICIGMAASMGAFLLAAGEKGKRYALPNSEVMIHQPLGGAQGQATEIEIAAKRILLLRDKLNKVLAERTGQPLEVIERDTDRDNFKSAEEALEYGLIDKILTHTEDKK
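Buffer: 100 mM Tris/HCl pH8, 100 mM KCl, 0.05% low protease BSA, 2.5% glycerol, 0.01% Tween-20. ClpP 10 microg/mL final; 20 min RT; delta FRET normalized to ADEP and DMSO controls.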
PINK1 expr mod: A Quantitative High throughput Screen to Identify Chemical Modulators of PINK1 Expression; Potency, µM (highest dose often 76.6 µM), inactives show at the highest dose activation (PINK1 increase), actives largely listed as activators; PINK1 immunofluorescence, high-content cytometry, 24 h; 410,000 tested, 0.2% active; active = well fitted activation curve with a large enough effect; inconclusive = small, poorly fitted or top-dose-only effect; inactive = flat fitted curve, though single readings scatter; cell line not stated here;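 also: potency is read from the fitted curve at half-maximal effect; % of control where 0% means no effect; nearly all actives have a fitted effect of over 65% in size; a mitochondrial uncoupler was the plate control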
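Fluorescence from anti-PINK1 antibody, together with nuclear and cell stains, was scanned on a laser-scanning cytometer. Before staining, stable-line cells were incubated 24 hours with compounds at 5 concentrations; primary antibody 12 h at 10 degrees C.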
TRPML1 agonist: qHTS for Agonists of the Human Mucolipin Transient Receptor Potential 1 (TRPML1). Mucolipin-1 (Homo sapiens), Q9GZU1. TRPML1-expressing cells, Ca2+ dye fluorescence, FDSS; host cell line not named in the record; reference of the full effect not given here. activation, % (concentration not given with the values). 410,000 tested, 0.12% active. AID 624414, 2012; in the data active = activation above about 50%; inconclusive = about 30% to 50%; inactive = below about 30%; also: 0% is about no effect; the text of the record puts the active cut at 80%
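Tetracycline-induced TRPML1-DL cells are seeded and incubated overnight before loading with a no-wash Ca2+ dye and quencher. Agonist activity is taken from the 110 s fluorescence read following compound pin-transfer on an FDSS, before EC80 54-4 challenge.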
TRPML1 inh: qHTS for Inhibitors of the Human Mucolipin Transient Receptor Potential 1 (TRPML1); TRPML1-inducible cells, Ca2+ dye fluorescence, FDSS; stronger effect = lower value; inhibition of EC80 agonist-evoked calcium signal; Mucolipin-1 (Homo sapiens), Q9GZU1; 390,000 tested, 0.02% active; AID 624415, 2012; activity change, negative = inhibition, % (concentration not given with the values); in the data active means activity change below about -50%; inconclusive means about -30% to -50%; inactive means above about -30%;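 also: stimulus is agonist 54-4 at its EC80 concentration; % is scaled to controls: 0 for no effect and ±100 for the full control effect; compound concentration not given in the record; the text of the record puts the active cut at -80%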
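Calcium fluorescence in TRPML1-DL cells induced overnight with Tet: a 110 s read after compound pin addition, then a 110 s antagonist read after challenge with 54-4 at 4 uM final (EC80).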
TRPV1 potentiator: HTS Assay for Compounds that Act as Potentiators of the Vanilloid Receptor 1. TRPV1-expressing cells, Fluo-8 calcium influx, capsaicin EC20 potentiation; host cell line not named in the record; control for the full effect not named in the record. 320,000 tested, 0.02% active. potentiation, % at 8.33 µM. AID 540277, 2011; active means potentiation above 80%; inconclusive means 30% to 80%; inactive means below 30%; also: 0% is about no effect
Target sequence (Q8NER1 whole entry, looked up): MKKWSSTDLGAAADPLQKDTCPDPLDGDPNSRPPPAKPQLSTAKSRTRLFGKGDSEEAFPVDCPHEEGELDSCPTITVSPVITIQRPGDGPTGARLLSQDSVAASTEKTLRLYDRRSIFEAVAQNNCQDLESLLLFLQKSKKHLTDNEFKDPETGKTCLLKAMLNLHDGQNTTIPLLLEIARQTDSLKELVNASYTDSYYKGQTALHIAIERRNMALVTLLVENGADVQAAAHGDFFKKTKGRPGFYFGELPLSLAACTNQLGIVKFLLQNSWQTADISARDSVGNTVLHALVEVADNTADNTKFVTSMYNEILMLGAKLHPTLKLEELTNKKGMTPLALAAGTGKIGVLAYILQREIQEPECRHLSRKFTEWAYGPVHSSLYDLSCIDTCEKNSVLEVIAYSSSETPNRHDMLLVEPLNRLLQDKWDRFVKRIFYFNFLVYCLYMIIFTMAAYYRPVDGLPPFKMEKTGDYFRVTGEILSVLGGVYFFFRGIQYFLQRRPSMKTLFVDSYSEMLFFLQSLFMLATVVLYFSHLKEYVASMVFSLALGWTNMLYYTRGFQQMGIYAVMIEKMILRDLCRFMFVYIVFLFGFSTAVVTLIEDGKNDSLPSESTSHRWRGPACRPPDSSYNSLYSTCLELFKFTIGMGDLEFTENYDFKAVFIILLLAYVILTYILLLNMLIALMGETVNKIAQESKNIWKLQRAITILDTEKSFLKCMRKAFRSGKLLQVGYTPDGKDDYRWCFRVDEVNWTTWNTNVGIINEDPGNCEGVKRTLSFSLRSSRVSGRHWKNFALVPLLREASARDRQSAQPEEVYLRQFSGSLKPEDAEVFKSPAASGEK
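Cells expressing TRPV1 were dye-loaded with Fluo-8 and read kinetically: 10 s baseline, 3 min after compound (agonist portion), then 2 min after EC20 capsaicin (allosteric enhancer portion). Calcium-bound dye fluorescence at 480/520 nm.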
Sfp inh: qHTS Assay for Inhibitors of Bacillus subtilis Sfp phosphopantetheinyl transferase (PPTase); Biochemical Sfp PPTase activity, qHTS; Potency, µM, without a hit: max response, negative = inhibition, hits mostly inhibitors; 310,000 tested, 3.5% active; active = well fitted inhibition curve with a large enough effect; inconclusive = small, poorly fitted or top-dose-only effect, or another doubt; inactive = no such curve, though single readings can be large or run the other way;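 also: the enzyme is Sfp with the accession as filed and its product quenches rhodamine fluorescence; potency is read from the fitted curve at half-maximal effect; 0% = enzyme reaction without inhibitor and -100% = no enzyme wells; top concentration of the series not given in the record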
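Reaction rates are the 30-min fluorescence difference (ex 525, em 598 nm) in wells containing 15 nM Sfp, 5 uM rhodamine-CoA and 12.5 uM BHQ-2-YbbR at pH 7.6 with 10 mM MgCl2.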
* hit, by the source's call; u = inconclusive; x = no result given; [ ] = dose if it differs, or a comment.

SMILES	Menin-MLL FL inh	ClpP mod	PINK1 expr mod	TRPML1 agonist	TRPML1 inh	TRPV1 potentiator	Sfp inh
COc1ccc(/C=C2/SC(=S)N(NS(=O)(=O)c3ccccc3)C2=O)cc1	11.0	0.2%	-0.6%	-1.3	10.9	u	3.2%
CC1C(=O)N2CCCc3cc(S(=O)(=O)NCc4ccc(F)cc4)cc1c32 (configuration not stated)	x	x	6.5%	-0.6	4.8	-11.8	x
N#C/C(=C\c1cccs1)C(=O)N1CCOCC1	-0.8	-0.1%	0.1%	0.2	-23.4	11.0	18.0%
c1ccc(C[C@H]2CN=C(Nc3ccccc3)N2CC2CCC2)cc1	x	-0.9%	0.6%	-0.1	56.2	-8.0	x
CC(=O)N/C(=C\c1ccccc1)C(=O)OCC(=O)Nc1cc(S(=O)(=O)N(C)C)ccc1C	x	-3.1%	0.6%	3.9	24.5	1.9	x
Cc1ccc(NC(=O)CCNC(=O)c2ccc([N+](=O)[O-])cc2)cc1S(=O)(=O)N(C)C	-3.6	x	-1.0%	4.6	9.6	15.4	-1.3%
Cc1ccc(S(=O)(=O)N2CCCCC2)cc1NC(=O)COc1ccccc1F	-4.6	x	0.5%	1.5	32.8	-2.2	14.2%
CC1CCCN(S(=O)(=O)c2cc(C(=O)NCCc3ccccc3)n(C)c2)C1 (configuration not stated)	x	0.9%	-0.4%	0.7	0.9	x	x
O=C1c2ccccc2/C(=C\C#Cc2ccccn2)N1c1ccccc1	x	-2.2%	1.2%	0.3	7.3	x	x
CCOC(=O)c1ccccc1NC(=O)Cn1cnc2c(nnn2-c2ccc(C)cc2)c1=O	-2.4	u	0.6%	-0.3	13.0	u	-1.9%
CC(C)OC(=O)CSc1nnc(Cc2ccccc2)n1CC1CCCO1 (configuration not stated)	-3.8	-1.3%	-0.9%	0.9	-13.6	-5.7	17.2%
OCCC1CN(Cc2cnc(N3CCOCC3)s2)CCN1C1CCCC1 (configuration not stated)	3.3	-0.3%	0.2%	0.0	-12.5	3.2	-8.7%
CCOC(=O)Cc1csc(NC(=O)CSc2nncn2C)n1	3.2	-3.4%	0.2%	0.1	1.7	15.7	-9.3%
CS(=O)(=O)c1ccccc1C(=O)Nc1cc2c(cc1C(=O)O)OCCCO2	0.4	x	-1.4%	-0.2	-21.0	24.4	18.5%
CCc1ccccc1N(CC)C(=O)c1c(C)oc2ncn(C)c(=O)c12	x	0.2%	-0.7%	0.1	26.4	x	x
COc1ccccc1C(=O)Nc1nnc(-c2ccc(F)cc2)o1	-1.6	-3.7%	0.2%	-1.2	11.2	-10.7	-8.5%
Cc1ccc2cc(C#N)c(SCC(=O)NCc3ccco3)nc2c1	5.0	-2.6%	3.6%	-1.0	-1.8	-18.8	-13.1%
CCCCn1c(N)c(N(CCOC)C(=O)CCS(=O)(=O)c2ccc(C)cc2)c(=O)[nH]c1=O	x	-5.7%	0.2%	0.0	-2.9	x	x
CCOc1ccc(C2=Nn3c(nnc3-c3ccco3)SC2)cc1	6.6	0.9%	4.0%	3.7	-2.6	-12.1	-4.2%
COc1cc(S(=O)(=O)Nc2ccccc2N2CCCCC2)ccc1NC(C)=O	x	-1.2%	2.7%	-0.7	-0.6	-17.2	x
O=C(COc1ccc(Cl)cc1Br)OCC(=O)c1ccc[nH]1	x	3.7%	4.9%	2.0	-7.0	x	x
CCN1CCN(C(C(=O)NC2CCCCC2)c2ccnc3ccccc23)CC1 (configuration not stated)	x	-1.5%	1.1%	-0.3	x	x	x
CCc1nc2c(OCC(=O)c3ccc(Cl)cc3Cl)cccn2c1N(C=O)Cc1ccccc1	x	-14.4%	-0.5%	4.7	x	x	x
Cc1ccc(C)c(N2CCN(S(=O)(=O)c3ccc4oc(=O)c5ncn(C)c5c4c3)CC2)c1	x	-3.2%	0.7%	0.4	-7.8	x	x
COC(=O)c1ccc2nc(NC(=O)COC(=O)CSc3nc(C)cc(C)n3)sc2c1	3.0	-9.6%	0.0%	-0.3	-11.0	-10.1	-17.0%
O=c1c2[nH]c3ccccc3c2ncn1CCN1CCCCC1	-1.0	25.1µM*	-1.8%	0.3	-10.0	0.1	9.3%
CCCN(C(=O)COC(=O)CCOc1ccccc1)c1c(N)n(Cc2ccccc2)c(=O)[nH]c1=O	x	-2.5%	3.3%	0.2	-19.4	-7.4	x
Cc1c(/C=N\NC(=O)c2ccc([N+](=O)[O-])cc2)cnn1C	-2.2	1.5%	0.5%	-0.1	-3.1	-5.8	23.2%
Cc1nc2ccc(NC(=S)N3CCOCC3)cc2nc1C	-0.7	-6.6%	-0.4%	-0.1	8.7	4.8	-17.9%
CCc1nnc(NC(=O)CCC(=O)N2CCCC2)s1	4.0	0.2%	-0.9%	-0.6	13.7	6.4	18.2%
COc1ccc(/C=C(/NC(=O)c2cccs2)C(=O)N2CCOCC2)cc1OC	0.3	-8.8%	0.1%	-0.5	-5.3	4.2	8.3%
O=C(CSc1nc2ccccc2c(=O)n1-c1ccc(Cl)cc1)N/N=C/C=C/c1ccccc1[N+](=O)[O-]	x	-0.1%	-0.1%	-0.4	1.3	-40.4	1.8%
COc1ccc(Cn2c(SCC(=O)NCc3ccc(Cl)cc3)nc3ccsc3c2=O)cc1	x	0.2%	-4.5%	0.3	-12.2	x	x
O=[N+]([O-])c1ccc(-c2cc(-c3ccncc3)nc3ccc4ccccc4c23)cc1	3.5	-12.2%	x	-0.1	-5.7	-4.4	-4.2%
C=CCc1cc(C)cc(C)c1OCCn1cncn1	0.2	1.8%	-0.9%	2.1	-6.8	-28.8	-5.6%
COc1ccc(CNC(=S)Nc2ccccc2Cl)cc1	1.6	-3.4%	0.0%	1.1	14.8	-15.4	-2.3%
COc1ccc([C@@H]2CC=C(C(=O)O)[C@H](c3cccc(Cl)c3)N2S(=O)(=O)c2ccc(Cl)cc2)cc1	x	-0.4%	1.1%	-0.6	41.6	u	x
COc1ccccc1C(=O)N(Cc1cccs1)C1CCS(=O)(=O)C1 (configuration not stated)	0.4	-0.6%	-1.3%	-1.0	15.9	9.8	12.4%
COc1ccccc1/C=C/C(=O)NCC(=O)N/N=C(/C)c1ccco1	-0.1	x	0.2%	1.4	9.9	2.2	-1.7%
CCc1ccc(/C=C2/Sc3ccccc3N(CC(=O)NCCCOC)C2=O)cc1	-4.3	x	x	x	x	-6.6	-0.8%
C[C@H]1CN([C@@H](C)CO)S(=O)(=O)c2ccc(Br)cc2O[C@H]1CN(C)C(=O)Cc1ccccn1	x	-4.3%	1.2%	-0.4	-4.3	x	x
COc1cc(/C=C/C(=O)OCC(=O)N2CCN(S(=O)(=O)c3ccc(C)cc3C)CC2)cc(Cl)c1OC	x	u	-1.9%	-0.1	-14.8	1.7	x
CCCCC(NC(=O)COc1cc2c(c3oc(=O)cc(C)c13)CCC(C)(C)O2)C(=O)O (configuration not stated)	-3.9	x	-0.8%	0.0	7.0	14.1	8.2%
CCCc1c(C(=O)OCC)nnc2c(-c3ccccc3)c(C)nn12	x	1.3%	0.2%	0.7	2.2	x	x
COc1cccc(NC(=O)C2CCOC2=O)c1 (configuration not stated)	x	0.2%	1.3%	1.6	16.0	x	x
Cc1ccc(CSc2nc(N)cc(N)n2)cc1	2.2	-0.8%	-0.5%	0.6	16.7	11.8	9.8%
O=C(OCCOCCN=C1NS(=O)(=O)c2ccccc21)c1ccncc1	2.6	-1.0%	1.4%	-0.6	-21.5	8.3	13.9%
O=C1C(Oc2ccccc2)C(c2ccc3c(c2)OCO3)N1CCc1ccc(F)cc1 (configuration not stated)	2.4	1.1%	18.0%	0.3	5.1	-1.1	19.3%
O=C(NCc1ccccn1)Nc1ccc(Cl)c(Cl)c1	-0.5	3.5%	0.9%	-0.6	1.2	-14.7	-13.7%
O=C(Nc1ccc(Cl)cc1)c1nc[nH]c1C(=O)N1CCc2ccccc2C1	x	0.8%	0.5%	0.1	22.7	0.9	x
Cc1ccccc1OCc1nc2c3cnn(-c4ccccc4F)c3ncn2n1	x	-28.3%	1.6%	0.4	-5.5	x	x
O=C1C=C(c2ccc(F)nc2)C[C@@H](c2ccc3c(c2)OCO3)C1	x	1.2%	-0.4%	-0.3	38.6	-22.9	x
c1ccc2c3c([nH]c2c1)C(C1CCCCC1)N(Cc1ncc[nH]1)CC3 (configuration not stated)	-7.0	x	u	-0.6	16.9	1.9	-0.6%
COCCn1c(N)c(Sc2ccccc2[N+](=O)[O-])c(=O)[nH]c1=O	6.4	1.2%	0.1%	0.3	-5.2	-8.3	16.7%
COc1ccc(NS(=O)(=O)c2ccc(C)c(C(=O)O)c2)cc1	2.3	-2.7%	-1.8%[38.3 µM]	0.6	4.4	-5.0	-3.8%
C=Cc1ccc(CSc2nc(-c3ccc(OC)cc3)nc3c2Cc2c(CO)cnc(C)c2O3)cc1	x	-8.5%	-0.3%	0.3	-0.9	x	x
Cc1c(NC(=S)NC(=O)C(C)(C)C)c(=O)n(-c2ccccc2)n1C	1.5	-1.2%	1.4%	0.5	4.0	2.3	6.5%
CCS(=O)(=O)Nc1ccc(-c2nnc(SCC(=O)c3cccc(OC)c3)o2)cc1	0.6	-11.2%	13.5%	3.6	12.8	11.3	-11.1%
CCOc1ccc(C2NC(=O)c3n[nH]c(C)c32)cc1 (configuration not stated)	2.9	-0.4%	0.7%	-0.4	10.5	x	13.2%
O=C(Cn1nc(-c2ccccc2Cl)ccc1=O)Nc1ccc(Br)cc1	2.3	x	2.8%	-0.3	-0.9	-7.9	13.4%
COCCN(Cc1ccc(OC)cc1)c1c(C)nc2ccc(C(=O)Nc3ccc(NC(C)=O)cc3)cn12	x	-0.5%	-0.3%	-0.5	x	x	x
COc1ccc(NC(=O)CCc2c(C)nc3nc(CNC(=O)OC(C)(C)C)nn3c2C)cc1OC	x	0.1%	-0.2%	1.5	20.2	x	x
COc1ccc(NC(=S)N2CCC(N(C)CC3CCCO3)CC2)cc1Cl (configuration not stated)	1.8	-3.7%	-1.0%	0.8	-29.9	-6.0	39.8µM*
